# VACV E9 pol inh: inhibitors of vaccinia virus processive DNA synthesis (E9 polymerase); in vitro processive DNA synthesis, absorbance read-out; active compounds read low; some inactives read as strong as hits; normalized absorbance, % (test concentration not listed); hit rate 0.94% among 46,000; AID 493162;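 active = replicate mean up to 90% and picked by the depositor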;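 note: 100% = median of the test wells of a plate; 100 nL library stock went into each well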
# Active calls of the source: *. These rows are one share of the data (hit frequency here may not be typical).
SMILES,VACV E9 pol inh
COc1ccc(-c2cc3ccccc3n2CC(O)CN2CCN(CCO)CC2)cc1 (stereo not drawn),100
CC1(C)CC(=O)C2=C(C1)N(c1ccccc1C(F)(F)F)C(=O)CC2c1cccs1 (stereo not drawn),100
CC(=O)Nc1nc(NC(C)=O)n(-c2ccccc2)n1,95
COc1ccc(C(=O)CSc2n[nH]c(=O)n2Cc2ccco2)cc1,101
Cc1ccc(-n2c(C)cc(C(=O)O)c2C)cc1,102
NC1=C(c2ccc3ccccc3n2)C(=O)CS1,99
CC(C)C(NC(=O)c1ccc(C23CC4CC(CC(C4)C2)C3)cc1)C(=O)NCC1CCCO1 (stereo not drawn),97
COc1ccc(C(=O)Nc2ccn(-c3ccccc3)n2)c(OC)c1,102
CCC1C/C(=C/c2ccccc2OC)C(=O)/C(=C/c2ccccc2OC)C1 (stereo not drawn),91
CN1CCN(CC(=O)N2c3ccccc3C(=O)Nc3cccnc32)CC1,103
O=C(O)c1ccccc1C(=O)Nc1cccc2ccccc12,98
O=C(Cc1nc2ccccc2[nH]1)NCc1ccccn1,102
COC(=O)c1ccc(CSC(=N)N)cc1,81*
Fc1ccc(-c2oncc2-c2nnnn2-c2ccc(Cl)cc2)cc1,79
O=C(COC(=O)c1ccc(S(=O)(=O)N2CCCCC2)cc1)c1ccccc1,92
Cc1ccc(-c2nn(CCO)c(=O)c3ccccc23)cc1C,99
O=C(c1ccc(Cl)cc1)N1CCCCC1,98
N#CCC(=O)NCc1cccs1,110
CCN(CC)c1ccc2cc(-c3nc4ccccc4[nH]3)c(=O)oc2c1,105
CC(Oc1ccccc1F)C(=O)NCc1ccc2c(c1)OCO2 (stereo not drawn),90

# Two entries drawn at random from those above:
SMILES,VACV E9 pol inh
COc1ccc(-c2cc3ccccc3n2CC(O)CN2CCN(CCO)CC2)cc1 (stereo not drawn),100
COc1ccc(C(=O)Nc2ccn(-c3ccccc3)n2)c(OC)c1,102

# The results go on:
SMILES,VACV E9 pol inh
C=CCCN1CC2C[C@@H](C1)Cn1c2cccc1=O,100
CC(=O)Nc1nc(C23CC4CC(CC(C4)C2)C3)cs1,101
CCN(CC)C(=S)CSc1nc(-c2ccccc2)cc(-c2ccco2)c1C#N,88
CN(C)c1nc(NCc2ccccc2)nc(Nc2ccc(OC(F)(F)F)cc2)n1,100
CCn1c(SC)nnc1-c1nnc(SC)n1CC,107
CCOc1nc2ccccc2c(=O)[nH]1,100
Cc1ccc(-c2csc3ncn(-n4c(C)ccc4C)c(=O)c23)o1,99
Cn1c(=O)c2c(nc(SCC(=O)N3CCCCC3)n2C)n(C)c1=O,100
CC(C(=O)O)c1ccc(-c2ccccc2)c(F)c1 (stereo not drawn),97
CC1(C)CC(=O)C=C(Nc2ccc3c(c2)OCCO3)C1,88
COC(=O)c1cn(Cc2ccc(C(F)(F)F)cc2)cc(F)c1=O,96
COc1ccc(C(=O)Nc2nnc(-c3ccc(Cl)cc3)o2)cc1,93
CCOC(=O)c1c(CN(C)C)n(-c2ccccc2)c2cc(Br)c(OC)cc12,100
NCC(O)COCc1ccco1 (stereo not drawn),89
CCCCC(CC)CN=C(N)NC(N)=NCCCCCCN=C(N)NC(N)=NCC(CC)CCCC (stereo not drawn),27*
COc1nc(NCCO)nc(Nc2ccc(I)cc2C)n1,98
O=C(Cc1ccccc1)c1ccccc1C(=O)NCc1cccs1,97
O=C(Oc1ccccc1)c1cc(-c2ccccc2)c(C(F)(F)F)s1,99
O=C(CCN1C(=O)c2ccccc2C1=O)Oc1ccc2c3c(c(=O)oc2c1)CCC3,100
COc1cc(OC)cc(C(=O)NC(C(=O)O)C23CC4CC(CC(C4)C2)C3)c1 (stereo not drawn),91

# Entries listed so far that have a thiophene ring, fused or not:
SMILES,VACV E9 pol inh
CC1(C)CC(=O)C2=C(C1)N(c1ccccc1C(F)(F)F)C(=O)CC2c1cccs1 (stereo not drawn),100
N#CCC(=O)NCc1cccs1,110
Cc1ccc(-c2csc3ncn(-n4c(C)ccc4C)c(=O)c23)o1,99
O=C(Cc1ccccc1)c1ccccc1C(=O)NCc1cccs1,97
O=C(Oc1ccccc1)c1cc(-c2ccccc2)c(C(F)(F)F)s1,99

# (continued)
SMILES,VACV E9 pol inh
CC(C)N(C(=O)CSc1ccccc1C(=O)O)c1ccccc1,100
COC(=O)Cn1c2ccccc2c2nc3ccccc3nc21,96
COc1cc(C)nc(NC(=O)NS(=O)(=O)c2ccccc2NC(=O)C(F)(F)F)n1,100
COC(=O)Nc1ccc(S(=O)(=O)N(C)C)cc1,100
COc1ccc(C(=O)NCC2COc3ccccc3O2)cc1OC (stereo not drawn),100
O=C(CCCC(=O)c1ccccc1)Nc1nc2ccc(Br)cc2s1,99
CCCSc1nc2cc(C)c(C)cc2n1CC(C)O (stereo not drawn),107
CCNC(=S)Nc1sc2c(c1C#N)CCC(C)C2 (stereo not drawn),81
Cc1cc(C(=O)NCc2cc(F)cc3c2OCOC3)nn1C,103
Clc1ccc(N2Cc3ccccc3C2)cc1Cl,99
Cc1nc(N2CCCC2)[nH]c(=O)c1CCC(C)C,93
Cc1ccc(C)c(NC(=O)CC(Cc2ccccc2)C(=O)O)c1 (stereo not drawn),100
COc1cccc(-c2nn(CN3CCCC3)c(=S)n2C)c1,100
CC(=O)OC1CCS(=O)(=O)C1 (stereo not drawn),100
O=C(Oc1ccc(C(=S)N2CCCCC2)cc1)c1ccccc1,100
CC(=O)Nc1nc2sc(C)c(C)c2c(=O)s1,100
CCc1ccc(NS(=O)(=O)c2ccc3[nH]c(=O)ccc3c2)cc1,103
C=C(C)[C@H]1CC=C(C(=O)O)CC1,98
O=C(NC1=NCCS1)c1ccccn1,98
O=C(CN1c2cccc3cccc(c23)S1(=O)=O)N1CCCCC1,90
CC(C)(C)OC(=O)N1CCC(C(=O)N2CCCCC2)CC1,99
CC1(C)CC(=O)C(C(N)=NC(=O)c2ccccc2)=C(O)C1,100
O=C(NC(NC1=NCCS1)(C(F)(F)F)C(F)(F)F)c1ccco1,102
COc1ccc(C2Nc3ccccc3-c3cc(C)nn32)cc1 (stereo not drawn),102
O=C(CS(=O)(=O)c1c[nH]c2ccccc12)N1CCN(c2ccccc2)CC1,100
CCOC(=O)c1ccc(-n2c(=S)[nH]c3ccccc32)cc1,100
CSc1nc2n(n1)C(=O)CC(C)(C)N2,96
O=C(C1=C2Sc3ccccc3N2CC(C(=O)c2ccccc2)C1)c1ccccc1 (stereo not drawn),102
CC1CCC(C(C)C)C(OCC(O)CNC(C)C)C1 (stereo not drawn),93
CCc1ccc(-c2nc(C(N)=O)c3[nH]c(=O)n(-c4ccccc4)c3n2)cc1,97

# An excerpt from above in order of SMILES length, highest first:
SMILES,VACV E9 pol inh
CCc1ccc(-c2nc(C(N)=O)c3[nH]c(=O)n(-c4ccccc4)c3n2)cc1,97
O=C(CS(=O)(=O)c1c[nH]c2ccccc12)N1CCN(c2ccccc2)CC1,100
CC1(C)CC(=O)C(C(N)=NC(=O)c2ccccc2)=C(O)C1,100
CCOC(=O)c1ccc(-n2c(=S)[nH]c3ccccc32)cc1,100
CC(C)(C)OC(=O)N1CCC(C(=O)N2CCCCC2)CC1,99
COc1ccc(C2Nc3ccccc3-c3cc(C)nn32)cc1 (stereo not drawn),102
CC1CCC(C(C)C)C(OCC(O)CNC(C)C)C1 (stereo not drawn),93
CSc1nc2n(n1)C(=O)CC(C)(C)N2,96

# Source: PubChem BioAssay
